# Sfp PPTase inh: inhibitors of Bacillus subtilis Sfp phosphopantetheinyl transferase | Biochemical Sfp PPTase activity, qHTS | Potency, µM, inactives show max response, negative = inhibition, most hits filed as inhibitors | 3.5% of 310,000 active; active = well fitted inhibition curve with a large enough effect; inconclusive = small, poorly fitted or top-dose-only effect, or another doubt; inactive = no such curve, though single readings can be large or run the other way;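 note: the enzyme is Sfp with the accession as filed and its product quenches rhodamine fluorescence; potency is the fitted concentration of half-maximal effect; 0% = enzyme reaction without inhibitor and -100% = no enzyme wells; top concentration of the series not given in the record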
#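 Step 1, compound plus 15 nM Sfp-PPTase, 15 min, room temperature. Step 2, add rhodamine-CoA (5 uM) and BHQ-2-YbbR (12.5 uM). Step 3, read 525/598 nm fluorescence at 0 and 30 min.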
# CtBP-E1A inh: CtBP/E1A binding inhibition; AlphaScreen GST-E1A/His-CtBP binding, 1536-well; stronger effect = lower value; control for the full effect not named in the record; 0.49% of 340,000 active; activity change, % (concentration not given with the values); in the data active means activity change below about -65%; inconclusive means about -30% to -65%; inactive means above about -30%; note: % is set by controls: 0 for no effect and ±100 for the full control effect
#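 GST-E1A and His-tagged CtBP (125 nM each as 5X stock) were preincubated with pin-transferred compound for 2 h at 37 °C in the dark, then glutathione donor and nickel acceptor beads were added for 1 h before AlphaScreen reading.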
# PINK1 modulator: modulators of PINK1 expression; PINK1 immunofluorescence, high-content cytometry, 24 h; Potency, µM (series often up to 76.6 µM), for the others: at the highest dose activation (PINK1 increase), usual class: activators; 0.2% of 410,000 active; AID 624263; active = well fitted activation curve with a large enough effect; inconclusive = small, poorly fitted or top-dose-only effect; inactive = flat fitted curve, though single readings scatter; cell line not stated here;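 note: potency is the fitted concentration of half-maximal effect; % of control where 0% means no effect; nearly all actives have a fitted effect of over 65% in size; a mitochondrial uncoupler was the plate control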
#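 Decision-based qHTS: stable cells, 24 h exposure to five compound concentrations, CCCP as control. Fixed cells stained for PINK1 plus nuclear, mitochondrial and cell markers, cytometer read.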
# D2 potentiator: human D2 receptor positive allosteric modulation | P14416 | potentiation, % (no concentration beside the values) | AID 624464 | 0.23% of 360,000 active | DiscoveRx D2 beta-arrestin cells, luminescence, 90 min; 100% = 57 uM dopamine signal; active = potentiation of 50% or more; inconclusive = 30% to 50%; inactive = 30% or less;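 note: compound concentration not given in the record; tested on top of an EC20 dose of dopamine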
#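 PathHunter beta-arrestin assay in DiscoveRx D2 cells. Compounds were added with an EC20 of dopamine (50 nM final) for 90 min at 37 deg C. Luminescence was read 1 h after detection reagent, with 57 uM dopamine as the EC100 control.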
# D2 agonist: human D2 receptor agonism in beta-arrestin assay; P14416; DiscoveRx PathHunter D2 beta-arrestin, luminescence, 90 min; 100% = 57 uM dopamine signal; activation, % (concentration not given with the values); 0.084% of 360,000 active; in the data active = activation above about 40%; inconclusive = about 15% to 40%; inactive = below about 15%; note: compound concentration not given in the record; the text of the record calls up to 30% inactive
#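 Agonist mode: compounds alone added to overnight-plated D2 PathHunter cells for 90 min at 37 C, with 57 uM final dopamine (EC100) defining full response. Beta-arrestin recruitment detected by chemiluminescent reagent, read after 1 h at ambient temperature.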
# TRPV1 potentiator: potentiators of human vanilloid receptor 1 (TRPV1); 0.02% of 320,000 active; Q8NER1; potentiation, % at 8.33 µM; TRPV1-expressing cells, Fluo-8 calcium influx, capsaicin EC20 potentiation; host cell line not named in the record; control for the full effect not named in the record; active means potentiation above 80%; inconclusive means 30% to 80%; inactive means below 30%; note: 0% is about no effect
#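 Fluo-8 calcium influx in TRPV1-expressing cells, kinetic read (ex 480/em 520 nm). Compound added and read 3 min for agonist activity, followed by capsaicin at EC20 final and 2 min further read for enhancement.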
# Six1-Eya2 inh: blocks human Six1 binding to Eya2. activity change, % (concentration not given with the values). AID 651725. 0.56% of 360,000 active. AlphaScreen GST-Six1/His-Eya2 binding, biochemical; stronger effect = lower value; control for the full effect not named in the record. Q15475+O00167; in the data active = activity change below about -65%; inconclusive = about -30% to -65%; inactive = above about -30%; note: % is set by controls: 0 for no effect and ±100 for the full control effect
# Target sequence (O00167 whole entry, looked up): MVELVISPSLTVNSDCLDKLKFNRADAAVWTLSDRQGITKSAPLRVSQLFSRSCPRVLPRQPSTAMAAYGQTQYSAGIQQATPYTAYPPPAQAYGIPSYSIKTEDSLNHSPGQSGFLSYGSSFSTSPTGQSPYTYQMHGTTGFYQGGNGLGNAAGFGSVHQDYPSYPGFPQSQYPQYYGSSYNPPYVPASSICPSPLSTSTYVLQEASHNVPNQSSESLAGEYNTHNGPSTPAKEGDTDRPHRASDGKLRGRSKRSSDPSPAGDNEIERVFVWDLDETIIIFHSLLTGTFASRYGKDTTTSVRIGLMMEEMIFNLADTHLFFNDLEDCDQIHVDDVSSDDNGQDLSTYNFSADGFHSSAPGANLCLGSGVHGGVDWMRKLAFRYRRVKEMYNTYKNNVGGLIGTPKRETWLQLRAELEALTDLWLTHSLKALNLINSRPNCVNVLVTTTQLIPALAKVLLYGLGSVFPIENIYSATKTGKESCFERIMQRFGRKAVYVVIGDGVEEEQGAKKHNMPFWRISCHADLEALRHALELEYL
# Target sequence (Q15475 whole entry, looked up): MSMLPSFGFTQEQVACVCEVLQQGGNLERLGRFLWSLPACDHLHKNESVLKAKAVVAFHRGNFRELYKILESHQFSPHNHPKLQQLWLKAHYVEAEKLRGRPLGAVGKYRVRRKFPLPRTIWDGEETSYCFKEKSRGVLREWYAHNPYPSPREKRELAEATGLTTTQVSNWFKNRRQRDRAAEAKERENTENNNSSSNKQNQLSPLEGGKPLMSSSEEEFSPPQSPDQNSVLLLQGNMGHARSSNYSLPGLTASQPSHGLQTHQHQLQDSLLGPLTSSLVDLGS
#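 Six1/Eya2 binding was read as AlphaScreen signal after compounds were pinned into GST-Six1 plus His-tagged Eya2 (5X stock 250/500 nM) in pH 8.0 Tris/NaCl/TCEP buffer, beads added, then incubated 1 h, 37 C, dark.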
# Numbers without * were called inactive; u = inconclusive; x = not tested or not shown; & = joins results of further samples; [ ] = another dose, or the depositor's remark.
# Start of the data: the first 2 compounds (preview)
1) CC(C)CC(NC(=O)C1CCC(=O)N1C(=O)OCc1ccccc1)C(=O)NC(Cc1ccccc1)C(N)=O (stereo not drawn)
2) CC1(C)Cc2nc3sc4c(=O)n(Cc5ccccc5)cnc4c3cc2CS1
assay / entry	1	2
Sfp PPTase inh	4%	-22%
CtBP-E1A inh	2	16
PINK1 modulator	-1.3%	14%
D2 potentiator	3	4
D2 agonist	0.6	-0.4
TRPV1 potentiator	14	-7
Six1-Eya2 inh	20	8

# The listing, repeating the preview:
1) CC(C)CC(NC(=O)C1CCC(=O)N1C(=O)OCc1ccccc1)C(=O)NC(Cc1ccccc1)C(N)=O (stereo not drawn)
2) CC1(C)Cc2nc3sc4c(=O)n(Cc5ccccc5)cnc4c3cc2CS1
3) CCN(CC)c1ccc(NC(=O)CCCOc2cccc(C)c2)cc1
4) O=C(NCc1ccccc1)C(=O)NCC1OCCN1S(=O)(=O)c1cccs1 (stereo not drawn)
5) COCc1nc2sc(C)c(C)c2c(=O)[nH]1
6) C=CCN(C(=O)CSc1nc2ccsc2c(=O)n1Cc1ccc(C(=O)O)cc1)c1ccccc1
7) O=C(Cc1ccc(Cl)cc1)NCCCn1ccnc1
8) Cc1ccc(-c2c(C(=O)N/N=C/C3CC=CCC3)nnn2-c2nonc2N)cc1 (stereo not drawn)
assay / entry	1	2	3	4	5	6	7	8
Sfp PPTase inh	4%	-22%	5%	4%	21%	x	-5%	5%
CtBP-E1A inh	2	16	u	10	4	2	-3	x
PINK1 modulator	-1.3%	14%	-0.5%	-0.8%	-0.4%	-0.3%	1.8%[38.3 µM]	-1.6%
D2 potentiator	3	4	-2	-3	-8	-12	-1	-7
D2 agonist	0.6	-0.4	-2.0	-1.2	-1.5	-3.5	-1.1	-0.4
TRPV1 potentiator	14	-7	8	2	1	x	7	9
Six1-Eya2 inh	20	8	u	6	5	-3	4	4

9) O=C(Nc1ccc(F)cc1)c1ccc2c(=O)n3c(nc2c1)CCCCC3
10) COC(=O)c1ccccc1NC(=O)c1noc2c1CCC2
11) c1ccc(-c2nnc(N3CCN(c4ccccn4)CC3)c3ccccc23)cc1
12) O=C(Nc1cc(Sc2ccccn2)cc([N+](=O)[O-])c1)c1cccc(Cl)c1
13) CCCCNC(=O)c1onc(CSc2ccccc2CC)c1C(=O)O
14) N#CC1=C(N)Oc2cc(O)c(C=Nc3ccccc3)cc2C1c1ccccc1 (stereo not drawn)
15) O=C(OCc1ccc(F)cc1)c1cc(=O)c2ccccc2o1
16) COc1ccccc1C1NC(=O)NC(C)=C1C(=O)OCC1CCCCC1 (stereo not drawn)
assay / entry	9	10	11	12	13	14	15	16
Sfp PPTase inh	10%	u	-10%	11%	-11%	0%	1%	x
CtBP-E1A inh	-6	4	u	-14	4	2	10	-4
PINK1 modulator	1.7%&2.8%	1.7%[38.3 µM]	-4.0%	3.2%	1.1%	-1.1%	4.4%	3.6%
D2 potentiator	1	4	-7	-8	4	10	-5	-27
D2 agonist	5.7	4.2	-0.6	1.0	2.4	-2.5	1.7	-3.6
TRPV1 potentiator	-19	-19	5	-3	12	-15	5	x
Six1-Eya2 inh	-7	-6	-26	-11	-6	-2	1	3

17) Cc1nc(Nc2ccc(S(N)(=O)=O)cc2)oc1C
18) O=C(CCN1CCN(Cc2ccccc2)CC1)NNC(=O)Nc1cccc(C(F)(F)F)c1
19) CN(C)S(=O)(=O)c1ccc(C(=O)Nc2ccccc2C(=O)O)cc1
20) CCCCN(C)c1c(C)nc2ccc(C(=O)N(C)Cc3ccco3)cn12
21) CCN(c1ccc(NC(=O)COC(=O)C(C)N=C2NS(=O)(=O)c3ccccc32)cc1)C(C)C (stereo not drawn)
22) CC1(C)CC(=O)C=C(c2ccc(-c3cccc4c3sc3ccccc34)cc2)C1=O
23) CC(Oc1ccccc1F)c1nnc(SCC(=O)N(c2ccccc2)C2CCS(=O)(=O)C2)o1 (stereo not drawn)
24) O=C(CSc1ncccc1C(=O)O)NC1CCCCC1
assay / entry	17	18	19	20	21	22	23	24
Sfp PPTase inh	9%	18%	3%	x	x	x	x	12%
CtBP-E1A inh	1	2	-14	-7	-9	-20	x	x
PINK1 modulator	0.0%	0.6%	-0.6%	-1.2%	-1.1%	4.9%	1.5%	0.3%
D2 potentiator	10	-8	1	-1	5	0	11	-5
D2 agonist	-2.6	0.3	-0.2	4.7	-2.3	-9.3	1.3	3.7
TRPV1 potentiator	2	6	-6	x	-26	x	x	5
Six1-Eya2 inh	2	2	-4	5	-17	-18	1	-19

# Retrieved by compound from the entries so far:
20) CCCCN(C)c1c(C)nc2ccc(C(=O)N(C)Cc3ccco3)cn12
18) O=C(CCN1CCN(Cc2ccccc2)CC1)NNC(=O)Nc1cccc(C(F)(F)F)c1
19) CN(C)S(=O)(=O)c1ccc(C(=O)Nc2ccccc2C(=O)O)cc1
17) Cc1nc(Nc2ccc(S(N)(=O)=O)cc2)oc1C
24) O=C(CSc1ncccc1C(=O)O)NC1CCCCC1
21) CCN(c1ccc(NC(=O)COC(=O)C(C)N=C2NS(=O)(=O)c3ccccc32)cc1)C(C)C (stereo not drawn)
assay / entry	20	18	19	17	24	21
Sfp PPTase inh	x	18%	3%	9%	12%	x
CtBP-E1A inh	-7	2	-14	1	x	-9
PINK1 modulator	-1.2%	0.6%	-0.6%	0.0%	0.3%	-1.1%
D2 potentiator	-1	-8	1	10	-5	5
D2 agonist	4.7	0.3	-0.2	-2.6	3.7	-2.3
TRPV1 potentiator	x	6	-6	2	5	-26
Six1-Eya2 inh	5	2	-4	2	-19	-17

# The list continues:
25) Cc1nn(C(C)c2nc(-c3ccccc3)no2)c(C)c1[N+](=O)[O-] (stereo not drawn)
26) COc1ccc(/C=C/C(=O)OCC(=O)Nc2ncc(Cl)cc2Cl)cc1
27) O=C(CCNS(=O)(=O)c1cccc2nonc12)NCCc1ccc(Cl)cc1
28) Cc1cc(NC(=O)Cn2cc([N+](=O)[O-])cn2)n(Cc2ccc(F)cc2)n1
29) COc1ccc(C(O)c2nc(-c3cccc4cccnc34)cs2)cc1 (stereo not drawn)
30) COc1ccccc1N1CCN(C(=O)Nc2cccc(Cl)c2)CC1
31) CCCNc1nc2c(c(=O)[nH]c(=O)n2C)n1Cc1cccc(Br)c1
32) CC(Oc1cccc(Cl)c1)C(=O)NNC(=O)c1cccnc1 (stereo not drawn)
assay / entry	25	26	27	28	29	30	31	32
Sfp PPTase inh	-4%	x	3%	20%	x	14%	8%	x
CtBP-E1A inh	0	9	7	3	7	7	-1	9
PINK1 modulator	-0.7%	u	-0.8%	-0.1%	0.4%	-3.4%[38.3 µM]	8.9%	-0.2%
D2 potentiator	6	-18	3	-14	-5	-17	-8	13
D2 agonist	-2.0	-2.1	-1.4	-3.6	-3.6	-1.1	-2.3	-0.3
TRPV1 potentiator	-5	x	-8	0	x	-4	17	x
Six1-Eya2 inh	7	-3	3	2	-4	-1	-2	0

33) CCn1c(CSc2nnc(-c3ccc4c(c3)OCO4)o2)nc2cc(S(=O)(=O)N(C)C)ccc21
34) CCc1ccc(/C=C2/SC(N3CCOCC3)=NC2=O)cc1
35) CCCS(=O)(=O)N1CCCC(C(=O)Nc2ccc3c(c2)CCC3)C1 (stereo not drawn)
36) O=C(NNC(=S)NC1CC2C=CC1C2)c1cccnc1 (stereo not drawn)
37) COC(=O)c1ccccc1NC(=O)CN(CCc1ccccc1)S(C)(=O)=O
38) FC(F)(F)c1cc(Cl)c2nnc(-c3cccnc3)n2c1
39) O=C(Nc1ccccc1)OCC(CN1CCCCC1)OC(=O)Nc1ccccc1 (stereo not drawn)
40) NC(=O)Nc1ccc2c(c1)OCCO2
assay / entry	33	34	35	36	37	38	39	40
Sfp PPTase inh	11%	-16%	1%	25%	9%	16%	-6%	22%
CtBP-E1A inh	-1	-1	7	8	-3	2	-3	-2
PINK1 modulator	-2.5%	-0.3%	11%	0.6%	-1.1%	-0.6%	-0.5%	1.4%
D2 potentiator	-15	-12	-5	-15	-3	0	5	10
D2 agonist	-0.2	-0.8	1.3	-5.4	-0.4	-1.6	-3.7	-0.9
TRPV1 potentiator	-13	-2	-15	-1	-11	3	7	19
Six1-Eya2 inh	-4	-8	5	2	1	5	5	9

41) Cc1ccc(-n2cc(C(=O)c3ccc4ccccc4c3O)cn2)cc1
42) O=C1c2ccccc2-c2c1cccc2C(=O)N1CCOCC1
43) Cn1c(-c2ccc(N)cc2)nc2ccccc21
44) CC(C)NC(=O)NC(=O)CSc1nnc(COc2ccccc2Cl)o1
45) N#CCSc1nnc(COc2cccc3ccccc23)n1-c1ccccc1
46) CC(C)NC(=O)c1ccc(S(=O)(=O)N(C)C)cc1
47) CN(C(=O)CO/N=C/c1ccc(Cl)cc1)c1ccccc1
48) CCc1cccc(C)c1NC(=O)c1ccc(CN2CCc3ccccc3C2)cc1
assay / entry	41	42	43	44	45	46	47	48
Sfp PPTase inh	0%	-2%	7%	19%	4%	21%	12%	2%
CtBP-E1A inh	5	-3	3	-2	-7	16	0	3
PINK1 modulator	7.8%	4.7%	-0.5%&0.6%	1.3%	-8.3%[38.3 µM]	1.2%	1.1%	11%
D2 potentiator	3	-1	3	-19	-5	-2	-8	-35
D2 agonist	2.6	-0.5	-1.2	-0.9	-0.9	1.3	-1.7	-1.9
TRPV1 potentiator	9	-12	10	-6	4	3	-10	10
Six1-Eya2 inh	0	5	2	-4	-12	6	2	13

49) Cc1ccc2nc(C3CCCN(C(=S)Nc4cccc(C)c4C)C3)[nH]c2c1 (stereo not drawn)
50) CN1CCN(NC(=O)CN(C)S(=O)(=O)c2cc(Cl)ccc2Cl)CC1
51) COc1ccc([C@H]2CC(=O)C=C(c3ccc4c(c3)OCO4)C2)cc1OC
52) O=C(NCc1cccnc1)c1ccccn1
53) COc1ccc(CNC(=O)C2Cc3c(-c4cccc(C(C)=O)c4)ccnc3O2)cc1OC (stereo not drawn)
54) Cc1oc2cc3oc(=O)c(CCC(=O)NCCCC(=O)O)c(C)c3cc2c1C
assay / entry	49	50	51	52	53	54
Sfp PPTase inh	5%	7%	x	3%	x	11%
CtBP-E1A inh	-13	1	-25	-3	2	x
PINK1 modulator	0.5%[38.3 µM]	0.8%	-0.9%	-0.2%	9.4%	1.1%
D2 potentiator	-28	-3	-6	1	-4	-12
D2 agonist	-2.6	-3.6	4.7	-1.0	11	-3.9
TRPV1 potentiator	0	-5	-11	8	x	12
Six1-Eya2 inh	-8	7	9	3	-2	-10

# This is a random part of the collection. Share with any hit: about 3.7%.
